# From PubChem BioAssay
# RanGTP-Impb inh = disruptors of Ran-importin-beta complex formation – biochemical, FRET, CFP-Ran, YFP-importin-beta, homogeneous, primary screen | cell-free CFP-Ran/YFP-importin-beta FRET ratio | inhibition, % (test concentration not listed) | 1.1% of 300,000 active;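 active means most replicates above 15%; inconclusive means exactly half above 15%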;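 further: 0% = DMSO wells and 100% = Ran loaded with GDP instead of GTP; wells of about 40 µL received 100 nL stock; the first replicate is given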
# Beta cell apopt = beta cell apoptosis inhibition | INS-1E cytokine-induced death, ATP luminescence, 48 h; percent of positive-control rescue, neutral wells zero | protection from apoptosis, % (no concentration beside the values) | 0.8% of 300,000 active | AID 435005;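 active means all replicates at 75% or more, or half of them and the mean; inconclusive means half reach 75% but not the mean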;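 further: 0% = cytokine-treated negative control wells and 100% = positive control rescue; higher means more ATP so stronger rescue from cytokine killing; wells of about 40 µL received 100 nL stock; the first replicate is given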
# UCH37 inh = blocks the human deubiquitinase UCH37. inhibition, % (no concentration beside the values). Q9Y5K5. AID 588478. purified proteasome/UCH37, Ub-AMC cleavage fluorescence. 0.33% of 330,000 active;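 active means mean of two replicates above 20%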;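 further: 0% = compound-free wells with enzyme and 100% = wells lacking proteasome; stock transfer was 100 nL into about 20 µL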
#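 Schedule: 30 min plus 25 min, room temperature / Material: human UCH37 within purified proteasomes / Technique: AMC fluorescence intensity at 355/460 nm / Buffer or medium: pH 7.4 Tris-HCl (50 mM) with ovalbumin, ATP-MgCl2, DTT / Controls: wells without proteasome as full block, compound-free enzyme plus substrate as uninhibited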
# LANA-H2B inh = blocks KSHV LANA binding to histone H2A/H2B; inhibition, % (test concentration not listed); cell-free LANA-H2A/H2B peptide, fluorescence polarization; Q9QR71; 0.6% of 320,000 active; in the data active means inhibition mostly above about 10%, no sharp cut-off; inactive means mostly below about 6.7%;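 further: stock transfer was 7.5 nL into about 10 µL; 0% = median of vehicle wells and 100% = median of positive control wells; one replicate is shown; the record names a cut of 25% in any replicate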
# Target sequence (Q9QR71 whole entry, looked up): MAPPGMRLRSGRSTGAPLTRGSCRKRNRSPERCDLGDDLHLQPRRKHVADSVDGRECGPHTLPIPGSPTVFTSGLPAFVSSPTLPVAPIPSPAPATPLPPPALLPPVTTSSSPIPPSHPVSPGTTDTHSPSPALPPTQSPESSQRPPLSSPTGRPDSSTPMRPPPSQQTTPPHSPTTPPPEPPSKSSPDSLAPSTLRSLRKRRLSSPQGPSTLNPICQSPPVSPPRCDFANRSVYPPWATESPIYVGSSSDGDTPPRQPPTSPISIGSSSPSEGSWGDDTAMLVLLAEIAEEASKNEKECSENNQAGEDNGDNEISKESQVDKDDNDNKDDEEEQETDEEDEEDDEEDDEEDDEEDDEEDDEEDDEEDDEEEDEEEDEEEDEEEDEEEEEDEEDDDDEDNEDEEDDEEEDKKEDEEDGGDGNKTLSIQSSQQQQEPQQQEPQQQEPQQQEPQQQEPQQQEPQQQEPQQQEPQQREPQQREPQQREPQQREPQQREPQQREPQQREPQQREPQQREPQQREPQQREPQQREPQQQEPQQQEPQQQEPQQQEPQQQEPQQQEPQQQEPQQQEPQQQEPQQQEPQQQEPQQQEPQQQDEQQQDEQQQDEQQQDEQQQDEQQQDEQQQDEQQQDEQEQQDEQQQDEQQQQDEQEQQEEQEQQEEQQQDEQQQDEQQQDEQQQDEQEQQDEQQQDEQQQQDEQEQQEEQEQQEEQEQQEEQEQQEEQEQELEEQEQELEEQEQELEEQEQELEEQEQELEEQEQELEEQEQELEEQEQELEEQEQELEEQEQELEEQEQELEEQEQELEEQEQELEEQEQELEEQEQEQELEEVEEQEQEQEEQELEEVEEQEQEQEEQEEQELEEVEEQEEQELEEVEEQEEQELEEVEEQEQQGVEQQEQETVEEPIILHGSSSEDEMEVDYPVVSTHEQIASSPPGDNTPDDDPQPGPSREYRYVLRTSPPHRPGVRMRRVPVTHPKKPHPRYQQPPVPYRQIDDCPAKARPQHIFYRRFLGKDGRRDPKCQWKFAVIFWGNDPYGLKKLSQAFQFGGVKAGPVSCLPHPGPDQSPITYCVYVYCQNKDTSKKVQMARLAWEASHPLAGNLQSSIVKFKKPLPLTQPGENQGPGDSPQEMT
# Bfl-1 A1 inh = inhibitors of the anti-apoptotic protein A1, read as caspase activation; MEF A1-2A-BIM cells, Caspase-Glo 3/7 luminescence, 3 h; percent of clofoctol response, vehicle zero; caspase activation, % (test concentration not listed); 0.066% of 330,000 active;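 active means over half of replicate activation scores above 10%, or exactly half above 10 with the replicate mean above 10; inconclusive means replicate mean below 10 yet half the replicates above 10; inactive means over half of replicates below 10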;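 further: wells of about 30 µL received 50 nL stock; many hits fall short of the cut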
# Beta2AR agonist = agonists of human beta-2 adrenergic receptor inducing internalization | AID 504454 | response, % (no concentration beside the values) | 0.43% of 340,000 active | Am2.2-beta2AR cells, FAP receptor internalization, flow cytometry; reference of the scale not given here | P07550;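 active means response above a set limit, near 3 SD of response in nonfluorescent compounds, cut at about 42% in these data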;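 further: stock transfer was 100 nL into about 11 µL; a reference agonist was the positive control; negative values mostly stem from fluorescent compounds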
# T cruzi inh = blocks replication of Trypanosoma cruzi; T. cruzi beta-gal in NIH3T3, luminescence, 90 h; inhibition, % (concentration not given with the values); 1.4% of 300,000 active; AID 1885;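 active means mean inhibition across valid replicates above about 55%, limit read from the data; inconclusive means mean below that limit but half or more replicates reach it; inactive means mean below it, under half of replicates reach it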;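 further: signal also drops with host cell toxicity which is not excluded here; 0% = plate median of DMSO wells and 100% = zero luminescence signal; higher percent means less beta-gal luminescence so fewer parasites; stock transfer was 50 nL into about 50 µL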
# Calb FLC = C. albicans growth modulation with fluconazole | C. albicans CaCi-2 (fluconazole-resistant clinical isolate) + fluconazole, Alamar Blue growth, 48 h | 0.57% of 300,000 active | growth inhibition, % (no concentration beside the values);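 active means most replicates above 75%; inconclusive means exactly half above 75%; inactive means most below 75%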;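 further: all wells also contain fluconazole at 8 µg/ml as a sub-toxic cotreatment; 0% = median of DMSO wells and 100% = median of geldanamycin control wells; wells of about 8 µL received 7.5 nL stock; the first replicate is given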
# * = called active by the depositor; u = inconclusive; x = no result given.
SMILES,RanGTP-Impb inh,Beta cell apopt,UCH37 inh,LANA-H2B inh,Bfl-1 A1 inh,Beta2AR agonist,T cruzi inh,Calb FLC
COc1ccccc1CNS(=O)(=O)c1c(C(=O)N2CCCCC2)c(C)n(C)c1C,2.9,x,0.3,0.9,-1.2,-1,5,9
COc1ccccc1CNC(=O)CCNS(=O)(=O)c1cccc2nonc12,-3.3,-6,4.0,-5.5,-0.1,3,1,5
Cc1ccc(C)c(NC(=S)N(Cc2ccco2)C(C)c2cccs2)c1 (stereo unspecified),0.4,-1,2.9,-1.1,0.0,-8,-9,-4
CN(CC(=O)NCCc1ccc(S(N)(=O)=O)cc1)c1ccccc1,-0.1,2,-0.5,0.6,0.9,4,-5,-7
Cc1nc(SCC(O)CCl)c([N+](=O)[O-])[nH]1 (stereo unspecified),6.2,-7,2.1,-0.6,-0.1,-2,0,-12
O=C(NCCCNc1ccc(C(F)(F)F)cc1[N+](=O)[O-])c1cc(F)c(F)cc1Cl,2.9,7,-1.2,0.4,0.9,1,14,0
COc1ccc(CCNC(=O)CS(=O)Cc2nc(-c3ccccc3Cl)oc2C)cc1OC (stereo unspecified),-0.6,-2,3.9,17*,-0.8,-5,4,-3
CCOC(=O)c1sc(=S)n(-c2ccc(OC)cc2)c1C,4.6,-6,4.6,7.8,-1.3,-2,1,0
Oc1ccc(N2CCN(C(=S)NCCc3ccccc3)CC2)cc1,1.2,3,4.0,-2.3,1.6,-6,23,106*
Cc1ccc(OCCC(=O)OCC(=O)NCCc2ccccc2)cc1,0.4,-8,2.2,3.7,u,3,-20,6

# Quoted from the listing.
# Cc1nc(SCC(O)CCl)c([N+](=O)[O-])[nH]1 (stereo unspecified) in Beta2AR agonist → -2
# COc1ccc(CCNC(=O)CS(=O)Cc2nc(-c3ccccc3Cl)oc2C)cc1OC (stereo unspecified) in UCH37 inh → 3.9

# Later entries
SMILES,RanGTP-Impb inh,Beta cell apopt,UCH37 inh,LANA-H2B inh,Bfl-1 A1 inh,Beta2AR agonist,T cruzi inh,Calb FLC
COc1cc(C=O)ccc1OCCSc1ccc(C)cc1,-3.4,-7,1.8,-7.6,-0.2,5,6,-7
CC1(C)NC(=O)N(c2ccccc2Cl)C1(C)NO (stereo unspecified),-1.8,5,0.4,5.1,1.3,1,-4,-5
Cc1ccc(Oc2ccc(NC(=O)CCC(=O)OCC(=O)c3cccs3)cc2)cc1C,-2.3,-2,6.0,2.6,0.3,15,-18,u
CNC(=O)C1CC(=O)N(c2ccc(C)cc2)C1 (stereo unspecified),1.9,-2,1.8,2.5,0.4,-5,x,2
COc1ccccc1NC(=O)C1C2CCCCC21 (stereo unspecified),-2.4,-5,6.5,0.7,-0.4,4,-7,-18
CN(CC(=O)N1CCN(c2cccc(Cl)c2)CC1)S(=O)(=O)c1cnc[nH]1,2.1,-2,4.0,4.8,2.6,-10,-46,6
COc1cc(/C=C2\C(=N)N3N=CSC3=NC2=O)ccc1OS(=O)(=O)c1ccccc1,x,-7,6.3,-1.5,-0.6,25,x,-4
Cc1ccc2c(c1)NC(=O)C(CC(=O)NCCCN1CCN(c3cc(Cl)ccc3C)CC1)O2 (stereo unspecified),1.5,4,6.7,-5.5,0.2,22,19,14
Cc1ccc(C(=O)Nc2c(C(=O)NCc3ccco3)cnn2-c2ccccc2)cc1,2.7,-8,3.2,-0.1,1.3,10,-16,13
O=c1c(S(=O)(=O)c2ccc(Cl)cc2)cn(Cc2cccc(F)c2)c2ccc(F)cc12,-1.8,x,6.6,0.3,0.0,-24,20,-9
CCCCC(=O)OCC(=O)c1[nH]c(C)c(C(=O)OCC)c1C,2.7,2,-0.3,-1.1,-0.2,0,-6,10
Cc1ccccc1S(=O)(=O)Cc1ccc(C(=O)N2CCN(c3ccccc3F)CC2)o1,-2.9,4,-1.3,-2.4,-0.5,-5,8,-6
O=C(NCCO)/C(=C/c1ccc2c(c1)OCO2)NC(=O)c1ccc(Br)cc1,x,-1,6.8,-4.0,1.3,-4,8,15
CCc1cc(OCCCCNCc2ccccc2)ccc1Cl,3.3,15,1.7,1.9,0.0,-2,23,-1
O=C(CSc1nnc(NC2CCCCC2)s1)N1CCOCC1,x,-4,2.6,-5.5,-0.6,-4,x,x
COC(=O)c1ccccc1NC(=O)CSc1nc(C)cc(C)n1,u,-8,4.9,3.6,0.5,2,-1,0
COC(=O)c1cc(OC)c(OC)cc1NCC(=O)Nc1cccc(C(F)(F)F)c1,-3.3,-8,-81,5.5,1.2,2,-1,-2
COc1ccc(C(=O)NCCNc2ncc(C(F)(F)F)cc2Cl)cc1[N+](=O)[O-],4.5,-12,-1.5,1.8,0.1,-19,19,30
CC1CCCCN1CCNC(=O)c1ccc2c(c1)N(Cc1cccc(Cl)c1)C(=O)c1ccccc1S2=O (stereo unspecified),3.0,-2,6.0,18*,0.2,9,21,6
Cc1nn(-c2ccccc2)c(Cl)c1/C=C/C(=O)c1ccccc1,7.6,-5,6.1,0.8,-0.1,-2,0,-5
O=C(CNCC1CCCO1)Nc1ccccc1N1CCOCC1 (stereo unspecified),0.6,-5,2.3,1.5,1.3,4,-3,4
CC(Oc1ccc(Br)cc1)C(=O)N1CCc2ccccc21 (stereo unspecified),-5.7,3,4.7,-2.0,-1.2,-4,5,-12
O=C(CC(NCc1ccccn1)C(=O)O)Nc1ccccc1Cl (stereo unspecified),-6.8,x,0.5,1.1,0.1,5,-14,-7
CCCc1nnc(NC(=O)CCC(=O)Nc2ccc(Br)cc2)s1,-0.8,-1,4.4,-5.2,-0.2,0,11,-8
O=C(COC(=O)c1cc(Cl)ccc1O)NCCNC(=O)COC(=O)c1cc(Cl)ccc1O,2.6,-3,-145,-0.2,-2.2,6,-7,-2
CC(C)(C)OC(=O)N1CCNc2ccccc2C1,4.7,-1,5.0,x,0.6,-1,-3,-22
Cc1ccc(-c2nnn(C(C)C(=O)N3c4ccccc4CCc4ccccc43)n2)cc1 (stereo unspecified),-0.7,2,1.8,0.8,0.4,12,31,15
O=C(CCSc1ccccc1)Nc1nc2c(s1)COc1ccccc1-2,4.1,x,3.3,-3.5,-0.2,11,-14,-5
Cn1c(CNC(=O)c2ccccc2)nnc1SCC(=O)N1CCN(c2ccccc2)CC1,0.1,0,2.5,-1.3,1.0,0,-6,31
COc1ccc(CCNC(=O)C2CCN(C(=O)NC3CCCCC3)CC2)cc1,u,2,1.4,0.2,-0.1,-2,-9,34
O=C(NCc1ccc(OC(F)(F)F)cc1)C12CN(Cc3ccccc3)CC1C(c1cccc([N+](=O)[O-])c1)=NO2 (stereo unspecified),1.4,0,0.5,3.7,-0.6,6,13,22
COc1ccccc1C(=O)NC(=O)COC(=O)c1ccco1,1.3,-3,2.1,-3.3,1.0,-4,-9,9
COc1ccc(S(=O)(=O)NC(C)C(=O)NCCN2CCOCC2)cc1Cl (stereo unspecified),3.5,-4,-3.2,-0.2,0.4,-2,4,10
CC1(C)CC(=O)C2=C(C1)N(c1cccnc1)C(N)=C(C#N)C2c1cccs1 (stereo unspecified),-2.2,1,-5.4,5.7,0.1,2,-13,1
Cc1cccc(CN2C(=O)N/C(=C/c3ccc(C)s3)C2=O)c1,u,9,-2.2,3.2,1.1,-11,17,-3
Cc1cc(NC(=O)CCC(=O)N(CCC(C)C)C(C(=O)NCC2CCCO2)c2ccccc2C)no1 (stereo unspecified),-3.1,2,3.3,6.0,0.3,0,-7,11
O=C(c1ccco1)N1N=C(c2ccccc2)CC1c1ccc2nccnc2c1 (stereo unspecified),0.2,1,6.8,-3.0,-0.9,4,23,u
CCc1c(C)nc2nc(NC(C)=O)[nH]n2c1=O,11,-2,0.8,-2.3,1.0,3,-11,-1
O=C(NCc1ccc(S(=O)(=O)NC2CCCCC2)s1)c1ccccc1,3.8,-3,3.7,-7.5,-0.1,-7,18,11
Cn1cc(S(=O)(=O)c2ccccc2)c(=O)c2cc(Cl)ccc21,4.8,-1,1.4,-4.4,0.2,-3,11,-2
CC(C)(C)n1nnnc1CN(Cc1cccnc1)Cc1ccccc1Cl,1.5,-2,1.6,3.4,-0.7,-3,31,4
CC(C)CNC(=O)c1cc(-c2ccc(Br)cc2)on1,-0.3,1,1.1,-2.1,-4.5,-5,5,-12
CCCn1c(N)c(C(=O)CSc2nnc(C3CC3)n2-c2ccccc2)c(=O)[nH]c1=O,x,0,x,0.2,-1.8,-5,x,x
COc1ccc2nc(SC)cc(C)c2c1,4.7,-2,-4.2,17,-0.2,-2,-9,5
COC(=O)c1c(NC(=O)CC2Nc3cc(C)c(C)cc3NC2=O)sc(C)c1C (stereo unspecified),-1.3,2,2.2,x,0.2,5,-3,2
O=c1cc[nH]c2cccc(Cc3ccccc3)c12,0.3,-3,3.2,-0.8,-0.2,-6,-5,-9
CC(=O)Nc1nc(COc2ccccc2)cs1,-0.3,-3,4.9,-6.0,-1.6,7,5,18
COc1ccc(NC(=O)CSCc2cc(=O)n3c(C)csc3n2)cc1,u,4,0.7,7.0,-0.6,-7,-1,3
O=C(Cc1c(O)c2ccccc2[nH]c1=O)OC1CCCCC1,2.1,3,0.6,1.9,0.8,-5,-6,-4
Cc1cccn2c(CNCC3OCCc4ccccc43)c(C(=O)N3CCCCC3)nc12 (stereo unspecified),2.5,1,0.1,2.0,0.4,4,17,-6
# The results go on.
SMILES,RanGTP-Impb inh,Beta cell apopt,UCH37 inh,LANA-H2B inh,Bfl-1 A1 inh,Beta2AR agonist,T cruzi inh,Calb FLC
COc1cc2c3nnc(-c4ccc(F)cc4)c-3cn(Cc3ccc(F)cc3)c2cc1OC,-43,-1,-120,-2.3,0.1,18,1,u
Cc1cc(C)c(S(=O)(=O)c2ccccc2)c(N(C)C)n1,-3.4,-6,1.0,6.0,1.3,1,-5,-1
O=C(c1cccc([N+](=O)[O-])c1)N1CCN(Cc2ccccc2)CC1,2.7,2,1.0,0.1,-1.5,-1,-2,4
O=C(COC(=O)c1c[nH]c2ccccc12)NC1CCCC1,x,1,-1.9,8.8,0.6,2,x,x
CCCCn1c(=S)[nH]c2ncccc2c1=O,4.3,-2,8.9,5.8,0.5,-9,-10,u
CCOc1ccccc1NS(=O)(=O)c1c(C)noc1C,-2.0,1,1.5,0.0,-0.2,-1,19,20
CC(=O)c1ccc(Nc2c([N+](=O)[O-])ccc3nonc23)cc1,-3.8,10,4.9,-1.8,0.0,1,-6,18
Cc1nc2c(-c3ccc(F)cc3)cnn2c(N)c1-c1ccc(F)cc1,-3.3,5,-144,-0.4,-0.4,16,32,6
Cc1cccc(C(CC(=O)NCCc2ccccc2)c2ccccc2)c1O (stereo unspecified),x,2,-1.2,-0.5,0.6,3,11,1
COc1cccc(C(=O)OCn2nnc3ccccc3c2=O)c1OC,5.4,-4,2.9,-6.9,0.1,-15,5,0
Cc1ccc(C)c(NC(=O)CN(C)C(=O)CSCc2c(C)noc2C)c1,-1.9,9,2.1,-0.4,-0.4,-4,-20,5
COc1ccccc1N1CCN(C(=O)c2cccc(N3C(=O)C4C5C=CC(C5)C4C3=O)c2)CC1 (stereo unspecified),0.2,-2,3.0,8.5,0.3,-4,-1,-1
COc1ccc(/C=N/NS(C)(=O)=O)c(OC)c1,0.8,0,x,-5.3,0.2,4,-21,5
